WNV NS2B-NS3 inh: inhibitors of WNV NS2B-NS3 protease, primary screen, biochemical, fluorogenic substrate; z-score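 (tested at a level between 10 and 100 µM)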; Genome polyprotein (West Nile virus), P06935; 0.18% of 65,000 active; fluorogenic substrate Ex360/Em465; active compounds read low;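 active means z-score at -3 or under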;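 further: score is relative to mean and spread of the compound wells of a plate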
Target sequence (P06935 1371-1501 limits assumed): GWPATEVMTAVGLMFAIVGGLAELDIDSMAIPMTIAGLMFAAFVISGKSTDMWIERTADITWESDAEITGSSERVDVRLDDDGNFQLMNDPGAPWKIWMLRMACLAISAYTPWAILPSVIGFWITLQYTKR
Target sequence (P06935 1502-1679 limits assumed): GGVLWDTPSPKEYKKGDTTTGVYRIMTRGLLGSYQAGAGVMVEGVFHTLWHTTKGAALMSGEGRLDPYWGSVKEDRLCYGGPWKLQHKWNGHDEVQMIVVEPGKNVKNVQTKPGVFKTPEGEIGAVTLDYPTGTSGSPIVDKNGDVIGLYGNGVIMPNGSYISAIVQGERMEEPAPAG
Hsc70: Hsc70 inhibitors, probe displacement, primary screen, biochemical, fluorescence polarization (AID 568) | Heat shock cognate 71 kDa protein (Homo sapiens) | Hsc70 fluorescence polarization, probe displacement; higher % means a stronger effect; strong numbers were not always called active | displacement, % at 20 µM, or IC50 in µM where a hit was titrated | 83,000 tested, under 10 active;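 active means displacement above 50% without optical interference and an IC50 on retest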;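 further: ATPase domain with a fluorescein-tagged ATP probe; 0% = vehicle and 100% = excess ADP; read after one hour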
MT1-MMP promoter: inhibitors of MT1-MMP promoter transcription, cell-based, luciferase reporter, luminescence (AID 618). 0.62% of 87,000 active. MT1-MMP promoter luciferase reporter cells, luminescence. calls from a first round at 10 µM; hits with a dose series show EC50 in µM;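 active means over half of the reporter light lost at 10 µM or EC50 under 50 µM; inactive means the rest and hits that failed the dose series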;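 further: actives suppress MT1-MMP promoter-driven transcription so potencies describe inhibitors; HT1080 fibrosarcoma cells; overnight exposure; toxic or luciferase-blocking compounds were not removed from the actives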
* = called active by the depositor; i = inactive; . = not tested or not shown; + = active, no number; & = joins results of further samples.

SMILES | WNV NS2B-NS3 inh | Hsc70 | MT1-MMP promoter
CC(C)(C)c1cc(NC(=O)C2CCCO2)no1 (centres undefined) | 0.01 | -7.2% | i
CS(=O)(=O)Nc1ccccc1C(=O)N1CCCC1 | 0.04 | -0.1% | i
CCOc1ccc(S(=O)(=O)N(C)c2ccc(OCC(=O)N3CCOCC3)cc2)cc1 | . | -0.3% | i
COc1ccc(S(=O)(=O)N2CCN(c3ncnc4c(-c5ccccc5)nsc34)CC2)cc1 | -0.64 | -5.7% | i
c1ccc(-n2nnc3ccccc32)nc1 | 0.25 | -7.9% | i
Cc1ccc(C)c(N2CCN(C(=O)C3CCCN(S(=O)(=O)c4c(C)noc4C)C3)CC2)c1 (centres undefined) | 0.27 | 4.3% | i
CN1CCN(Cc2nc3c(c(=O)n(C)c(=O)n3C)n2CCCc2ccccc2)CC1 | -0.03 | -2.3% | i
c1ccc(-c2nc3cnccn3c2Nc2ccc3c(c2)OCCO3)cc1 | -0.53 | -0.6% | i
Cc1cc(=O)[nH]c(SCCCOc2ccc(F)cc2)n1 | . | -1.6% | i
COc1ccccc1OCC(=O)O | 1.1 | -2.8%&4.1% | i
CCc1nc(SCC(=O)Nc2ccc(C(=O)O)cc2)n[nH]1 | 0.11 | 0.7% | i
COCCN(C(=O)CNC(=O)c1ccco1)C(C(=O)NC1CCCCC1)c1cccs1 (centres undefined) | . | 5.1% | i
CCOC(=O)CSc1nnc(-c2cccnc2)o1 | . | 3.5% | i
CCCCc1nc2n[nH]c(N)c2c2c1CCCC2 | 0.93 | -0.4% | i
COc1ccc(NC(=O)CSc2nnc(-c3ccc(C)cc3)n2N)cc1 | 0.24 | 0.0% | i
O=C1CC(c2cccc(Oc3ccccc3)c2)NC(=O)N1 (centres undefined) | 0.08 | 4.4% | i
Brc1ccc2oc3c(N4CCOCC4)ncnc3c2c1 | 1.8 | -2.3% | i
CC(=O)N1CCc2cc(Br)cc(S(=O)(=O)N3CCCCCC3)c21 | 1.1 | -6.8% | i
COc1ccc(CCNC(=O)CSc2nc(-c3ccco3)cc(C(F)(F)F)n2)cc1 | -0.81 | 0.5% | i
COC(=O)c1nnn(Cc2ccccc2)c1N | -0.09 | -4.7% | i
Cc1ccc(-c2nn3c(C)nnc3s2)cc1NC(=O)c1ccc(OC(C)C)cc1 | -0.49 | -3.2% | i
CCCCN(NC(C)=O)c1nc(Cl)nc(NC(C)C)n1 | . | -6.3% | i
Cc1cc(C)cc(NS(=O)(=O)c2ccc3oc(=O)ccc3c2)c1 | . | 4.7% | i
CCN(CC)C(=O)CC1(c2ccccc2OC)CCOC(C(C)C)C1 (centres undefined) | . | -1.2% | i
CCOC(=O)c1cccc(NC(=O)c2cccs2)c1 | 1.2 | 2.8% | i

More compounds follow:
SMILES | WNV NS2B-NS3 inh | Hsc70 | MT1-MMP promoter
COc1ccc(OC)c(N=Cc2c(O)[nH]c3ccccc23)c1 | 0.79 | -6.0% | i
CCOC(=O)C1CCc2nc3ccccc3c(=O)n21 (centres undefined) | -0.37 | 2.3% | i
Cc1onc(-c2ccccc2Cl)c1C(=O)OCC(=O)Nc1ccc2c(c1)OCO2 | 1.2 | -0.3% | i
COc1ccccc1C(=O)Nc1cc2cc(Cl)ccc2oc1=O | . | -0.7% | i
COC(=O)c1ccc(CSc2nc3ccccc3c(=O)n2CC(C)C)o1 | . | 5.3% | i
CCOc1ccc(Br)cc1S(=O)(=O)N1CCCC1 | . | 4.3% | i
CCc1ccc2nc(NC3=NCN(CCCN4CCOCC4)CN3)nc(C)c2c1 | -1.7 | -1.5% | i
CCCC(=O)Nc1ccccc1NC(=O)CCC | -1.1 | -0.5% | i
Cc1nc2sc(C(c3ccccc3)N3CCN(C(=O)c4ccco4)CC3)c(O)n2n1 (centres undefined) | -0.18 | 3.7% | i
CC1=C(C)CS(=O)N(S(=O)(=O)c2ccccc2)C1 (centres undefined) | . | -1.6% | i
CC(/C=N/NC(=O)c1ccc(Br)cc1)=C\c1ccccc1 | . | 3.0% | i
Cc1occc1C(=O)NC(C)CCc1ccccc1 (centres undefined) | -0.42 | 0.0% | i
CCN1/C(=C/c2ccc3ccccc3[n+]2CC)C=Cc2ccccc21 | . | -47% | +
CCOc1cc(C2/C(=C(/O)c3ccc(OC(C)C)cc3)C(=O)C(=O)N2CCCOC)ccc1O (centres undefined) | -0.16 | -0.6% | i
Cc1cc(NC(=O)CC(CN(C)S(=O)(=O)c2ccccc2)c2ccccc2)no1 (centres undefined) | 0.52 | 4.9% | i
O=C(OCC#CCSc1nnc(-c2ccncc2)o1)c1cccs1 | -0.02 | 2.6% | i
CCCOc1ccc(C2C(=O)N(C3CCCCCC3)CC(=O)N2Cc2ccco2)cc1OC (centres undefined) | . | -0.4% | i
O=C(CCCn1c(=S)[nH]c2cc3c(cc2c1=O)OCO3)NC1CC1 | -0.77 | 1.9% | i
O=C(O)CCCCCN1C(=O)CCC1=O | 0.0041 | -3.1% | i
Cc1ccc(-c2nn3c(C)nnc3s2)cc1N | -0.35 | 2.2% | i
OC(Cc1nc2ccccc2[nH]1)c1ccccc1Cl (centres undefined) | -0.54 | 5.0% | i
O=C(NC1=NCCS1)c1cc2ccccc2o1 | 0.37 | -0.6% | 6.5µM*
CCOc1ccc(-n2c(C)c(C(C)=O)c(C(C)=O)c2C)cc1 | . | 0.8% | i
Cc1ccc(NC(=O)c2ccc(Cn3cc(Br)cn3)o2)cc1 | . | -6.1% | i
CC(=O)Nc1cccc(NC(=O)C2CC3CCC2C3)c1 (centres undefined) | -0.09 | 3.8% | i

Three entries from above in a different format.
Values run as follows: WNV NS2B-NS3 inh, Hsc70, MT1-MMP promoter
- O=C(NC1=NCCS1)c1cc2ccccc2o1
 : 0.37, -0.6%, 6.5µM*
- CCOc1ccc(-n2c(C)c(C(C)=O)c(C(C)=O)c2C)cc1
 : ., 0.8%, i
- Cc1ccc(NC(=O)c2ccc(Cn3cc(Br)cn3)o2)cc1
 : ., -6.1%, i

(continued)
SMILES | WNV NS2B-NS3 inh | Hsc70 | MT1-MMP promoter
CCN(CC)CCN1C(=O)c2oc3ccccc3c(=O)c2C1c1ccccc1 (centres undefined) | -0.82 | -4.0% | i
Cc1nc(NC(=O)C2CC3CCCC(C2)C3=O)sc1C (centres undefined) | 1 | -4.5% | i
COc1ccc(NC2=C(C)C(=O)CC2)cc1 | 2.2 | 4.7% | i
Cc1nonc1NC(=O)CSc1nnc(-c2ccoc2C)n1C | -0.47 | -0.3% | i
CCOc1ccc(N(CC(=O)Nc2ccccc2C)S(=O)(=O)c2c(C)noc2C)cc1 | 0.17 | -3.8% | +
O=C(COC(=O)c1ccc(S(=O)(=O)N2CCOCC2)cc1)Nc1nc(-c2ccccc2)cs1 | 1.4 | 6.2% | i
CC(=O)Nc1ccc(S(=O)(=O)NCCSCc2ccco2)cc1 | -0.65 | -14% | i
O=C1CC(NCc2cccs2)C(=O)N1c1ccc(Cl)cc1 (centres undefined) | . | -20% | i
O=C(CCN1C(=O)c2ccccc2C1=O)Nc1ccncc1 | -0.45 | -2.9% | i
Cn1c(=O)c2c(nc(CN3CCN(CCO)CC3)n2CCc2ccccc2)n(C)c1=O | 0.99 | 0.4% | i
C=CCOC(=O)C1=C(C)NC(SCC(=O)Nc2ccccc2)=C(C#N)C1c1ccco1 (centres undefined) | . | -0.2% | i
COc1ccc(N=C2SC(C(=O)O)CC(=O)N2Cc2ccc(OC)c(OC)c2)cc1 (centres undefined) | -0.17 | -3.6% | i
Cc1ccc(C2C3=C(CC(C)(C)CC3=O)Nc3n[nH]c(C)c32)cc1 (centres undefined) | -0.36 | -0.9% | i
CCOC(=O)c1c(NC(=O)CSc2nnnn2C)sc(C)c1C | -1.1 | -7.7% | i
Cc1ccc(-n2sc3ccccc3c2=O)cc1S(=O)(=O)N1CCCCC1 | -0.33 | -0.2% | i
COc1ccccc1N1CCN(CC(=O)c2ccc3ccn(C(C)=O)c3c2)CC1 | 0.34 | -2.9% | i
O=C(O)C1CCN1C1CCCCC1 (centres undefined) | -0.3 | 2.0% | i
O=C(COC(=O)c1ccc(Sc2ccccc2)c([N+](=O)[O-])c1)NC1CCCc2ccccc21 (centres undefined) | . | 4.3% | i
CCc1cc2c(cc3c(=O)n(CC(=O)N4CCN(c5ccccn5)CC4)nc(CC)n32)s1 | -0.22 | 0.9% | i
COC(=O)c1nn(-c2ccc3c(c2)CCN3C(C)=O)cc1O | . | -3.2% | 0.61µM*
COc1ccc(OC)c(C(=O)COC(=O)c2ccc(C)o2)c1 | 0.56 | 159% | i
CCN(CCO)c1ncnc2c1sc1nc(CC(C)C)c3c(c12)CC(C)(C)OC3 | . | -5.0% | i
Cc1nc(N2CCN(c3ccccc3)CC2)nc2c1C(=O)CC(c1ccccc1)C2 (centres undefined) | -0.77 | -4.6% | i
Cc1cc(SCC(=O)N/N=C/c2ccc(O)cc2O)c(C)cc1Br | . | 4.2% | i
Cc1noc(C)c1C(=O)N1CCC(Cc2ccccc2)CC1 | -1 | 7.1% | i

Continued:
SMILES | WNV NS2B-NS3 inh | Hsc70 | MT1-MMP promoter
CCCCCOc1ccc(NC(=O)CCCC(=O)O)cc1 | 0.19 | -3.7% | i
O=c1cc(O)c2c(=O)n(-c3ccccc3)c3ccccc3c2o1 | -0.91 | -6.8% | i
Cc1nc(N)sc1N=Nc1ccc(Br)cc1 | . | -3.4% | i
CC(=O)c1nc(N2C(=O)C3CC=C(C)CC3C2=O)sc1C (centres undefined) | 0.05 | -2.1% | i
CCCCOC(=O)C1CCCC(C(=O)OCCCC)N1 (centres undefined) | 0.46 | 1.0% | i
CCOc1ccc(Cc2nc(C)c(CC(=O)N3CCOCC3)c(=O)[nH]2)cc1 | 0.09 | -9.2% | i
O=C(c1cccs1)N1CCc2ccccc21 | -0.91 | -2.9% | i
COc1cccc2cc(C(=O)NCc3ccco3)c(=Nc3ccc(C(=O)O)cc3)oc12 | . | -1.3% | i
Cc1nc2ccccc2c2oc(C(=O)NCC3CCCO3)cc12 (centres undefined) | -0.64 | 4.5% | i
CCOc1ccc(C2c3c(oc4cc(C)c(C)cc4c3=O)C(=O)N2CCCN2CCOCC2)cc1 (centres undefined) | -0.96 | 9.7% | i
CC1(C)Cc2c(cnn2-c2ccccc2)C(=O)/C1=N\NC(=O)c1ccccc1O | . | 4.4% | i
O=C(CSc1nc(-c2ccccc2)cs1)N1CCN(C(=O)c2ccco2)CC1 | -0.38 | 1.8% | i
COC(=O)c1ccc(Cl)c(NC(=O)CN(c2ccc3c(c2)OCO3)S(C)(=O)=O)c1 | -0.46 | -2.8% | i
COc1ccc(-c2nnc(Nc3nc4c(OC)cccc4s3)o2)cc1 | -0.11 | 0.3% | i
CS(=O)(=O)N(CC(=O)Nc1ccc2c(c1)OCO2)c1ccccc1 | -0.83 | -5.2% | i
O=C(O)c1ccc(COc2c(F)c(F)cc(F)c2F)o1 | -0.36 | -0.5% | i
Cc1c(-c2ccccc2)oc2nc3c(c(=O)n(C)c(=O)n3C)n12 | -0.63 | -9.9% | i
Cc1nnc(NC(=O)CCCCCN2C(=O)C3C4C=CC(C4)C3C2=O)s1 (centres undefined) | 0.93 | 5.0% | i
Cc1ccsc1C(=O)NNC(=O)C1CCCCC1C(=O)O (centres undefined) | . | -1.2% | i
CSc1nc(C)cc(-n2ccc(=O)[nH]c2=O)n1 | -0.62 | -4.5% | i
CC(C)CNC(=O)c1coc(=O)c(Br)c1 | . | 2.7% | 18µM*
Cc1cc2oc(=O)cc(CN3CCN(Cc4ccc5c(c4)OCO5)CC3)c2cc1C | -0.09 | -4.9% | i
COc1ccc(Cc2nn3c(-c4ccccc4OC)nnc3s2)cc1 | 0.42 | 5.3% | i
Cc1ccc(Cc2nc(-c3cccc(C)c3)no2)cc1 | 0.02 | 5.8% | i
CCC(=O)Nc1ccc2c(c1)nc(CCN1CCN(C)CC1)n2C | 1.2 | -2.6% | i
CCn1c(=O)n(CC(=O)NC2CCCC(C)C2C)c(=O)c2ccccc21 (centres undefined) | 1.1 | -5.3% | i
O=C(CN1C(=O)NC2(CCCC2)C1=O)N1CCN(C(=O)c2ccco2)CC1 | -0.14 | -9.0% | i
Cc1ccc(CNC(=O)C2CCCN2C(=O)NCc2ccccc2)cc1 (centres undefined) | . | 12% | i

One compound at a time (already shown). Order of values: WNV NS2B-NS3 inh	Hsc70	MT1-MMP promoter
Results for `CCCCN(NC(C)=O)c1nc(Cl)nc(NC(C)C)n1` : .	-6.3%	i
Results for `Cc1cc(NC(=O)CC(CN(C)S(=O)(=O)c2ccccc2)c2ccccc2)no1` (centres undefined) : 0.52	4.9%	i
Results for `CCN1/C(=C/c2ccc3ccccc3[n+]2CC)C=Cc2ccccc21` : .	-47%	+
Results for `O=C(CN1C(=O)NC2(CCCC2)C1=O)N1CCN(C(=O)c2ccco2)CC1` : -0.14	-9.0%	i
Results for `CCOc1ccc(C2c3c(oc4cc(C)c(C)cc4c3=O)C(=O)N2CCCN2CCOCC2)cc1` (centres undefined) : -0.96	9.7%	i

Filtered by structure, the compounds so far with fluorine (3)
SMILES | WNV NS2B-NS3 inh | Hsc70 | MT1-MMP promoter
Cc1cc(=O)[nH]c(SCCCOc2ccc(F)cc2)n1 | . | -1.6% | i
COc1ccc(CCNC(=O)CSc2nc(-c3ccco3)cc(C(F)(F)F)n2)cc1 | -0.81 | 0.5% | i
O=C(O)c1ccc(COc2c(F)c(F)cc(F)c2F)o1 | -0.36 | -0.5% | i
